Screening data (PubChem BioAssay)
D2 PAM: human D2 receptor positive allosteric modulation | P14416 | DiscoveRx D2 beta-arrestin cells, luminescence, 90 min; 100% = 57 uM dopamine signal | potentiation, % (test concentration not listed) | 360,000 tested, 0.23% active; active = potentiation of 50% or more; inconclusive = 30% to 50%; inactive = 30% or less;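 also: compound concentration not given in the record; tested on top of an EC20 dose of dopamine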
Target sequence (P14416 whole entry, looked up): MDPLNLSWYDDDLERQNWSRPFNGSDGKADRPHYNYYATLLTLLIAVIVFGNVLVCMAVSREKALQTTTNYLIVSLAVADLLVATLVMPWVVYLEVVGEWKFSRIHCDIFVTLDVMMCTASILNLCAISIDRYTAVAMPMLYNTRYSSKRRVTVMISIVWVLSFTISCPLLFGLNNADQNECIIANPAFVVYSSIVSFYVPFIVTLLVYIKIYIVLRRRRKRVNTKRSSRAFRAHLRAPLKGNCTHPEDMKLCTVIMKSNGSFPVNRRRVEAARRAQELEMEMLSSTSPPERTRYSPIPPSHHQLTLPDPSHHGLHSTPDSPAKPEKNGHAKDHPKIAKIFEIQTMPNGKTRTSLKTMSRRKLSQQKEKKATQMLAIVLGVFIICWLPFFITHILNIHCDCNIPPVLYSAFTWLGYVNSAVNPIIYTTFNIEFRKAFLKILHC
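PathHunter beta-arrestin assay in DiscoveRx D2 cells. Compounds were added with an EC20 of dopamine (50 nM final) for 90 min at 37 deg C. Luminescence was read 1 h after detection reagent, with 57 uM dopamine as the EC100 control.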
Six1-Eya2 inh: Six1/Eya2 interaction inhibition; Q15475+O00167; AlphaScreen GST-Six1/His-Eya2 binding, biochemical; stronger effect = lower value; control for the full effect not named in the record; activity change, % (no concentration beside the values); 360,000 tested, 0.56% active; AID 651725; in the data active = activity change below about -65%; inconclusive = about -30% to -65%; inactive = above about -30%; also: % is scaled to controls: 0 for no effect and ±100 for the full control effect; compound concentration not given in the record
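Compounds are tested against tagged Six1 and Eya2 proteins bridged by glutathione donor and nickel acceptor beads; after a one-hour incubation at 37 °C without light, AlphaScreen emission is recorded.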
CtBP-E1A inh: CtBP/E1A binding inhibition | AlphaScreen GST-E1A/His-CtBP binding, 1536-well; stronger effect = lower value; control for the full effect not named in the record | activity change, % (test concentration not listed) | 340,000 tested, 0.49% active; in the data active means activity change below about -65%; inconclusive means about -30% to -65%; inactive means above about -30%; also: % is scaled to controls: 0 for no effect and ±100 for the full control effect; compound concentration not given in the record
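GST-E1A and His-tagged CtBP (125 nM each as 5X stock) were preincubated with pin-transferred compound for 2 h at 37 °C in the dark, then glutathione donor and nickel acceptor beads were added for 1 h before AlphaScreen reading.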
D2 agonist: agonists of human D2 dopamine receptor (beta-arrestin); DiscoveRx PathHunter D2 beta-arrestin, luminescence, 90 min; 100% = 57 uM dopamine signal; activation, % (test concentration not listed); 360,000 tested, 0.084% active; AID 624465; in the data active = activation above about 40%; inconclusive = about 15% to 40%; inactive = below about 15%; also: compound concentration not given in the record; the text of the record calls up to 30% inactive
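Agonist mode: compounds alone added to overnight-plated D2 PathHunter cells for 90 min at 37 C, with 57 uM final dopamine (EC100) defining full response. Beta-arrestin recruitment detected by chemiluminescent reagent, read after 1 h at ambient temperature.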
PINK1 expr mod: PINK1 expression modulation; PINK1 immunofluorescence, high-content cytometry, 24 h; Potency, µM (titrated, usually from 76.6 µM), without a hit: at the highest dose activation (PINK1 increase), usual class: activators; 410,000 tested, 0.2% active; AID 624263; active = well fitted activation curve with a large enough effect; inconclusive = small, poorly fitted or top-dose-only effect; inactive = flat fitted curve, though single readings scatter; cell line not stated here;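 also: potency is read from the fitted curve at half-maximal effect; % of control where 0% means no effect; nearly all actives have a fitted effect of over 65% in size; a mitochondrial uncoupler was the plate control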
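Fluorescence from anti-PINK1 antibody, together with nuclear and cell stains, was scanned on a laser-scanning cytometer. Before staining, stable-line cells were incubated 24 hours with compounds at 5 concentrations; primary antibody 12 h at 10 degrees C.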
TRPML1 ag: agonists of human TRPML1 channel; Q9GZU1; TRPML1-expressing cells, Ca2+ dye fluorescence, FDSS; host cell line not named in the record; reference of the full effect not given here; activation, % (concentration not given with the values); 410,000 tested, 0.12% active; in the data active = activation above about 50%; inconclusive = about 30% to 50%; inactive = below about 30%; also: 0% is about no effect; the text of the record puts the active cut at 80%
Target sequence (Q9GZU1 whole entry, looked up): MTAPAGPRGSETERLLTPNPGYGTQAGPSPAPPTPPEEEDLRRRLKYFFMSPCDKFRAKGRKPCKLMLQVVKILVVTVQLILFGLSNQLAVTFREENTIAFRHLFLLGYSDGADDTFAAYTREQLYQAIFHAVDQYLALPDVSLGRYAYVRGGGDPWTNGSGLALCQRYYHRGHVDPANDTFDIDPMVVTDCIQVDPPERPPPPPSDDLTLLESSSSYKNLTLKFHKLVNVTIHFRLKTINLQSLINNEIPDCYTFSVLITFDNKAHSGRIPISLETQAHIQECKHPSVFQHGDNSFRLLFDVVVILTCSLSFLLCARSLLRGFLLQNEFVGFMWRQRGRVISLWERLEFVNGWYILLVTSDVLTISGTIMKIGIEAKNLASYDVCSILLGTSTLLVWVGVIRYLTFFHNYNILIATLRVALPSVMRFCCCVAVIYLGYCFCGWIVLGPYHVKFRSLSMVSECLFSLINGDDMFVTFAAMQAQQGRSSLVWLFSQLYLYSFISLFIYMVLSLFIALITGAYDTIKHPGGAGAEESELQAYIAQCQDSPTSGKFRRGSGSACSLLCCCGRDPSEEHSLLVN
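Cells: TRPML1-DL, 1X Tet inducer, ~16 h at 37 degrees C/5% CO2. Dye: ABD Ca8 no-wash + quencher, 45-90 min RT. Read: 10 s baseline, compound add, 110 s agonist phase; 54-4 EC80 (4uM final), 110 s antagonist phase.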
The depositor's hits bear a star; ? = inconclusive; . = no result given; [ ] = dose if it differs, or a comment. Hits appear at their usual frequency; 1.3% or so of the library scored in one or more.

SMILES | D2 PAM | Six1-Eya2 inh | CtBP-E1A inh | D2 agonist | PINK1 expr mod | TRPML1 ag
O=C(NCCN1CCC(n2c(=O)[nH]c3ccccc32)CC1)N1c2ccccc2Sc2ccccc21 | . | -11 | 2 | . | 3.2% | -0.9
CCOc1cc(C2NC(=O)NC(O)(C(F)(F)F)C2C(=O)c2ccc(OC)cc2)ccc1O (configuration not stated) | -5 | -2 | 3 | 0.1 | 2.3% | -1.1
COc1ccc(C2=C(O)C(C)N(c3ccccc3)C2=N)cc1OC (configuration not stated) | -13 | -1 | 9 | 0.3 | -0.3%[38.3 µM] | -0.4
O=C1NC(c2cccs2)C(C(=O)c2ccccc2)C(O)(C(F)(F)F)N1 (configuration not stated) | -13 | 5 | 11 | -1.6 | -5.9%[38.3 µM] | -0.3
CC(=O)NC(c1cccc(F)c1)c1nc(-c2cccs2)cs1 (configuration not stated) | -2 | 7 | -16 | 5.3 | 1.0% | 0.0
C=CCc1c(C)nc(-c2ccccc2)nc1N/N=C/c1ccccc1 | -12 | 0 | . | -7.5 | 26% | 1.9
COC(=O)[C@@H]1[C@H](CCc2ccccc2)NC(=O)N(Cc2ccccc2)[C@@H]1C | -3 | 0 | 3 | -1.6 | -1.2% | 2.4
Cc1nnc2sc(SCc3ccc(Br)cc3)nn2c1=O | 5 | 1 | 2 | 4.2 | 1.0% | -0.2
Cc1nc(N)nc(Cl)c1Cc1ccc(Cl)cc1 | -2 | 2 | -13 | 4.9 | -1.6% | 1.5
COc1cc(C(=O)N2C[C@H]3CON(C)[C@H]3C[C@H]2c2ccc(N3CCCCC3)cc2)cc(OC)c1OC | -8 | 4 | 5 | -3.0 | 1.0% | 0.0
CN(c1ccccc1)S(=O)(=O)c1ccc(NC(=O)c2cccs2)cc1 | -5 | -2 | . | 5.9 | 0.9% | 2.3
CCOC(=O)c1[nH]c2ccc(OC)cc2c1NC(=O)CCN1CCCC(C)C1 (configuration not stated) | -9 | -1 | 5 | -2.7 | 0.2% | 1.0
COC(=O)c1sc2cnccc2c1N | -1 | 7 | 3 | 0.9 | -2.9%[38.3 µM] | 1.7
COc1ccc(C(CNC(=O)Cc2cc(OC)c(OC)c(OC)c2)N2CCCC2)cc1 (configuration not stated) | -9 | 0 | 6 | -1.4 | 27%[38.3 µM] | -0.2
Cc1ccc(-c2cn3cccnc3n2)cc1 | -2 | 6 | 2 | 1.9 | 1.9% | -0.4
COc1ccc2nc(C)cc(Nc3ccc(C(=O)O)cc3)c2c1 | -7 | -7 | . | -2.2 | -1.3% | 0.8
c1ccc2cc(CCCc3cc4ccccc4cn3)ncc2c1 | -20 | 4 | 0 | -0.5 | 0.5% | 1.5
Cc1ccc2nc(SCC(=O)NCCc3ccccc3)nc(=O)n2c1 | -6 | 1 | -15 | -4.7 | 0.2% | -0.5
CCn1c(NC(=O)c2ccc(F)cc2)c2ccccc2nc1=O | 3 | 1 | 3 | 0.5 | -8.8%[38.3 µM] | -0.8
CC(=O)c1cccc(NC(=O)CCS(=O)(=O)c2cccc3nonc23)c1 | -2 | -1 | -4 | -2.4 | 0.1% | 0.7
Cc1cc(C)nc(SCC(=O)NCC2COc3ccccc3O2)n1 (configuration not stated) | -2 | 5 | -17 | -2.1 | -0.1% | 1.0
O=C(NCCCc1ccncc1)C1CCC(=O)N(Cc2cccc(C(F)(F)F)c2)C1 (configuration not stated) | 2 | 0 | 9 | -6.3 | -0.9% | 1.4
COC(=O)Cc1c(O)ccn(CCc2c[nH]c3ccccc23)c1=O | -4 | 4 | 7 | -3.1 | 1.0% | 4.5
O=C(c1cccc2ccccc12)C1CCCN(C(=O)CCCn2cncn2)C1 (configuration not stated) | 1 | -4 | -7 | -1.5 | 2.8% | -0.4
O=C1NC(=S)S/C1=C\c1ccc2ccccc2c1 | -16 | 7 | . | -2.6 | ? | -0.2
COc1ccc2c(c1)c(=O)oc1cc(OC(C(=O)O)c3ccccc3)ccc12 (configuration not stated) | -3 | ? | -17 | -0.6 | 0.0% | -0.8
CC1=C(C(=O)N(C(C)C)C(C)C)CC(CC(=O)NCCCN(C)C)C(=O)N1CCC1=CCCCC1 (configuration not stated) | -9 | 15 | -1 | -4.6 | 0.8% | 0.3
CC(C)(C)S(=O)(=O)c1cnc2c(-c3ccc(F)cc3)cnn2c1N | 13 | -1 | 1 | -2.5 | 17% | -0.9
CCOC(=O)c1c(NC(=O)COC(=O)c2ccc([N+](=O)[O-])cc2)sc(C(=O)N(C)C)c1C | -3 | 0 | 1 | 2.5 | -0.1% | 1.5
CCC(Sc1ccc2nnc(-c3ccc(F)cc3)n2n1)C(=O)O (configuration not stated) | -1 | -1 | -6 | -1.3 | 10%[38.3 µM] | 0.2
CCOC(=O)N1CCN(C(=O)c2ccccc2NC(=O)c2ccc(Br)cc2)CC1 | -4 | -1 | 6 | -3.7 | 1.4% | -0.2
Cc1csc(N/N=C/c2ccc([N+](=O)[O-])cc2)n1 | -1 | -12 | -6 | 11 | 2.8% | 0.2
Cc1ccc(NC(=O)Nc2ccccc2C(N)=O)cc1 | -16 | 1 | . | -6.5 | 0.5% | 0.5
O=C(c1ccco1)N1CCN(c2ncnc3c(-c4ccccc4)nsc23)CC1 | 16 | -15 | -14 | -0.5 | -3.5% | -0.7
COCCNC(=O)c1cc(-c2ccccc2)nn1CC1CC(c2cccc([N+](=O)[O-])c2)=NO1 (configuration not stated) | -8 | 3 | 3 | -2.1 | -0.2% | 0.5
COc1cc([C@@H]2CC=C(C(=O)O)[C@H](c3ccccc3)N2S(=O)(=O)c2ccc(C)cc2)cc(OC)c1OC | -4 | 2 | . | -3.6 | -0.1% | -0.2
CN1c2ccsc2C(O)=C(C(=S)Nc2ccccc2)S1(=O)=O | -12 | 1 | 4 | -3.8 | -0.7% | -0.4
O=C(NCc1ccc2c(c1)OCO2)C(=O)NCC1OCCCN1S(=O)(=O)c1ccccc1 (configuration not stated) | -8 | 0 | -4 | -0.4 | 1.4% | -0.4
COc1ccc(N2CCN(C3CCCN(C(=O)CCN4CCCCO4)C3)CC2)cc1 (configuration not stated) | -3 | 3 | 4 | 0.1 | -0.6% | -0.3
COC(=O)c1sc(-c2ccccc2)cc1NC(C)=O | -4 | -2 | -13 | -5.3 | 0.9% | 0.0

3 entries already listed, ordered by their value in CtBP-E1A inh, low to high.
SMILES | CtBP-E1A inh
Cc1cc(C)nc(SCC(=O)NCC2COc3ccccc3O2)n1 (configuration not stated) | -17
COc1ccc(N2CCN(C3CCCN(C(=O)CCN4CCCCO4)C3)CC2)cc1 (configuration not stated) | 4
CCOC(=O)N1CCN(C(=O)c2ccccc2NC(=O)c2ccc(Br)cc2)CC1 | 6

Next entries:
SMILES | D2 PAM | Six1-Eya2 inh | CtBP-E1A inh | D2 agonist | PINK1 expr mod | TRPML1 ag
CCc1nc2ccc(C(=O)N(CC)CCN(C)C)cn2c1N(C)C(=O)C1CCCCC1 | -6 | 1 | 2 | -4.5 | 0.6% | 1.0
CS(=O)(=O)N1CCN(C(=O)c2ccccc2)C1 | -8 | -1 | -2 | -2.6 | 8.0%[38.3 µM] | 0.4
O=C1CN(C(=O)COC(=O)c2cccc(OCc3ccccc3)c2)c2ccccc2N1 | -5 | -9 | -1 | -8.0 | 14% | -0.2
COCOCCn1cc(CN2CCS(=O)(=O)N(Cc3ccc(-c4ccc(F)nc4)cc3)C(C)C2=O)nn1 (configuration not stated) | . | -1 | 1 | 1.9 | 1.0% | .
CCc1ccc(OCCNC(=O)OCc2ccccc2)cc1 | 12 | 24 | 30 | -6.0 | 3.1% | -0.9
O=C(Nc1ccccc1C(F)(F)F)C1CCCC1 | -16 | 1 | -3 | 0.7 | 0.0% | -0.2
CC(CNS(=O)(=O)c1ccc(Cl)cc1)n1cncn1 (configuration not stated) | -5 | 15 | 7 | -1.1 | 1.7% | 0.3
O=C(c1cc(-c2cccc(Cl)c2)on1)N1CCOCC1 | -8 | 2 | 7 | -0.9 | 2.9% | -0.4
O=C(Nc1scc(-c2ccccc2)c1C(=O)O)c1ccccc1Cl | -1 | ? | ? | 9.4 | -2.5% | -0.4
N#Cc1cccc(NC(=O)c2nc(-c3ccccc3)n(-c3ccccc3)n2)c1 | -10 | -9 | -17 | -0.7 | -1.6% | 0.0
CC(C)(C)OC(=O)N1CCCC1C(=O)N1CCCC1C(=O)N1CCCC1C(=O)O (configuration not stated) | -12 | 1 | -1 | -5.6 | 1.2% | -0.3
C#CCOCCOCCOCCNc1nc(N2CCN(C(=O)[C@H]([C@@H](C)CC)n3cc(CCCCN)nn3)CC2)nc(N2CCN(C(=O)[C@H]([C@@H](C)CC)n3cc(CCCN=C(N)N)nn3)CC2)n1 | -46 | -3 | -3 | -4.6 | 1.7% | -0.8
CC(=O)c1cccc(N(C(=O)CNC(=O)c2ccco2)C(C(=O)NC2CCCC2)c2ccc(C)o2)c1 (configuration not stated) | -1 | -1 | 5 | -1.0 | 3.5% | 1.0
Cc1cccc(N2CCN(C(=O)c3cc4c(=O)n(C)c5ccccc5c4n3C)CC2C)c1 (configuration not stated) | 16 | ? | -27 | 1.6 | 1.2% | 0.6
O=C(NCc1ccccc1)/C(=C/c1ccc(OC(F)F)cc1)c1ccccc1 | -21 | 15 | 16 | -4.0 | ? | 5.6
CCn1c(=O)[nH]c(=O)c2c(N)c(C(=O)c3cc(F)ccc3F)sc21 | 2 | -25 | -21 | -1.3 | 2.4% | 2.0
COC(=O)NN1C(=O)C(c2ccccc2)=C(c2ccc(Cl)cc2)C1=O | -3 | 3 | 6 | -6.8 | -0.8% | 1.5
O=C(c1cc2c(s1)CCCCC2)N1CCN(c2ncccn2)CC1 | -10 | -2 | -4 | 1.3 | 4.9%[38.3 µM] | 3.1
CCn1c(SCc2ccccc2Cl)nc2nc3c(cc2c1=O)CCCC3 | 6 | -1 | -2 | -4.0 | 3.6% | 2.6
CCOc1cc(/C=C2\SC(=S)N(N3CCOCC3)C2=O)ccc1O | 8 | -4 | . | 2.2 | 2.5% | 0.5
CSc1ccccc1N=Cc1nc(-c2ccccc2)oc1O | -24 | 15 | 10 | -1.9 | 1.2% | 0.6

Record cards, as listed above:
Record of CCn1c(=O)[nH]c(=O)c2c(N)c(C(=O)c3cc(F)ccc3F)sc21 → D2 PAM: 2; Six1-Eya2 inh: -25; CtBP-E1A inh: -21; D2 agonist: -1.3; PINK1 expr mod: 2.4%; TRPML1 ag: 2.0
Record of CCc1ccc(OCCNC(=O)OCc2ccccc2)cc1 → D2 PAM: 12; Six1-Eya2 inh: 24; CtBP-E1A inh: 30; D2 agonist: -6.0; PINK1 expr mod: 3.1%; TRPML1 ag: -0.9
Record of O=C(NCc1ccccc1)/C(=C/c1ccc(OC(F)F)cc1)c1ccccc1 → D2 PAM: -21; Six1-Eya2 inh: 15; CtBP-E1A inh: 16; D2 agonist: -4.0; PINK1 expr mod: ?; TRPML1 ag: 5.6
